# Screens: PubChem, several laboratories
# LANA-H2B inh – blocks KSHV LANA binding to histone H2A/H2B; 320,000 compounds, 0.6% hits; cell-free LANA-H2A/H2B peptide, fluorescence polarization; Q9QR71; inhibition, % (concentration not given with the values); AID 2629; in the data active = inhibition mostly above about 10%, no sharp cut-off; inactive = mostly below about 6.7%;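 note: stock transfer was 7.5 nL into about 10 µL; 0% = median of vehicle wells and 100% = median of positive control wells; one replicate is shown; the record names a cut of 25% in any replicate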
# Target sequence (Q9QR71 whole entry, looked up): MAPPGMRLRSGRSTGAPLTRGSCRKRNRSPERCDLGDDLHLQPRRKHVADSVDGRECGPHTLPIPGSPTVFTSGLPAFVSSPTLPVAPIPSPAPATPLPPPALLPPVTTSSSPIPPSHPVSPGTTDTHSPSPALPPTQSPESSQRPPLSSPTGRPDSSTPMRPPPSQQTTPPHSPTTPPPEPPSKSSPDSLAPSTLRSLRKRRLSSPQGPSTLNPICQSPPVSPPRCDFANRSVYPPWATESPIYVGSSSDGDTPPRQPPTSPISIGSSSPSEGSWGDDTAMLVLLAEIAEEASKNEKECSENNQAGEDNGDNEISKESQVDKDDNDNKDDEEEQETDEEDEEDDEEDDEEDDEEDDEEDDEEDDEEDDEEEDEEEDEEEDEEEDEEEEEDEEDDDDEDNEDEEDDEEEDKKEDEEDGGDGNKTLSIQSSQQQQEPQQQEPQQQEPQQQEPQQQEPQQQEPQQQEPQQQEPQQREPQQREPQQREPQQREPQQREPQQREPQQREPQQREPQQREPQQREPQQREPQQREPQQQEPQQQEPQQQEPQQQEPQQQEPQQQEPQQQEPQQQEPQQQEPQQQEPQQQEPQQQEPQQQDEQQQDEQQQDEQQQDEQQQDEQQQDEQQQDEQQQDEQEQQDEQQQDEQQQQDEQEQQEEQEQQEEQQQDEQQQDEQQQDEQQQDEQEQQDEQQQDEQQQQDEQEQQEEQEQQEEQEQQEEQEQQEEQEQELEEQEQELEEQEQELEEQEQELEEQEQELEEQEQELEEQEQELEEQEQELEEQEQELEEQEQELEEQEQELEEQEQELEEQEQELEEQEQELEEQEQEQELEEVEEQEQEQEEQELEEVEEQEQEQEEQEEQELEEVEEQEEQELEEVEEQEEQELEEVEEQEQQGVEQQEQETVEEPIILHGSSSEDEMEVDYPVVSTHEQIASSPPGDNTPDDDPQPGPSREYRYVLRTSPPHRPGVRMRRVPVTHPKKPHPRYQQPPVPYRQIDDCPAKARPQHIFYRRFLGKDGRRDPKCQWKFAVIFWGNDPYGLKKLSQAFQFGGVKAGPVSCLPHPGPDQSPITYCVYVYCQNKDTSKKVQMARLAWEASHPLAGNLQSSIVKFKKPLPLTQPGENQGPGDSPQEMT
# A1 inh – inhibitors of the anti-apoptotic protein A1, read as caspase activation; MEF A1-2A-BIM cells, Caspase-Glo 3/7 luminescence, 3 h; percent of clofoctol response, vehicle zero; AID 2462; caspase activation, % (no concentration beside the values); 330,000 compounds, 0.066% hits;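 active = over half of replicate activation scores above 10%, or exactly half above 10 with the replicate mean above 10; inconclusive = replicate mean below 10 yet half the replicates above 10; inactive = over half of replicates below 10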;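 note: wells of about 30 µL received 50 nL stock; many hits fall short of the cut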
# Beta cell apopt – blocks beta cell apoptosis; INS-1E cytokine-induced death, ATP luminescence, 48 h; percent of positive-control rescue, neutral wells zero; protection from apoptosis, % (no concentration beside the values); 300,000 compounds, 0.8% hits;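 active = all replicates at 75% or more, or half of them and the mean; inconclusive = half reach 75% but not the mean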;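 note: 0% = cytokine-treated negative control wells and 100% = positive control rescue; higher means more ATP so stronger rescue from cytokine killing; wells of about 40 µL received 100 nL stock; the first replicate is given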
# Calb FLC – C. albicans growth modulation with fluconazole; C. albicans CaCi-2 (fluconazole-resistant clinical isolate) + fluconazole, Alamar Blue growth, 48 h; growth inhibition, % (concentration not given with the values); 300,000 compounds, 0.57% hits; AID 1979;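 active = most replicates above 75%; inconclusive = exactly half above 75%; inactive = most below 75%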;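 note: all wells also contain fluconazole at 8 µg/ml as a sub-toxic cotreatment; 0% = median of DMSO wells and 100% = median of geldanamycin control wells; wells of about 8 µL received 7.5 nL stock; the first replicate is given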
# UCH37 inh – human UCH37 deubiquitinating enzyme inhibition | Q9Y5K5 | purified proteasome/UCH37, Ub-AMC cleavage fluorescence | inhibition, % (no concentration beside the values) | 330,000 compounds, 0.33% hits | AID 588478;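 active = mean of two replicates above 20%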;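 note: 0% = compound-free wells with enzyme and 100% = wells lacking proteasome; stock transfer was 100 nL into about 20 µL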
#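 Test system – human UCH37 enzyme supplied as purified proteasome complex · Incubation – 30 min preincubation with enzyme, 25 min cleavage at room temperature · Detection – AMC fluorescence from Ub-AMC cleavage, excitation 355 nm, emission 460 nm · Benchmarks – no-proteasome wells (full inhibition) and compound-free wells (no inhibition)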
# RanGTP-Impb inh – disruptors of Ran-importin-beta complex formation – biochemical, FRET, CFP-Ran, YFP-importin-beta, homogeneous, primary screen. inhibition, % (no concentration beside the values). 300,000 compounds, 1.1% hits. cell-free CFP-Ran/YFP-importin-beta FRET ratio. AID 2216;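 active = most replicates above 15%; inconclusive = exactly half above 15%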;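 note: 0% = DMSO wells and 100% = Ran loaded with GDP instead of GTP; wells of about 40 µL received 100 nL stock; the first replicate is given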
# T cruzi inh – T. cruzi replication inhibition; T. cruzi beta-gal in NIH3T3, luminescence, 90 h; inhibition, % (concentration not given with the values); 300,000 compounds, 1.4% hits; AID 1885;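 active = mean inhibition across valid replicates above about 55%, limit read from the data; inconclusive = mean below that limit but half or more replicates reach it; inactive = mean below it, under half of replicates reach it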;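 note: signal also drops with host cell toxicity which is not excluded here; 0% = plate median of DMSO wells and 100% = zero luminescence signal; higher percent means less beta-gal luminescence so fewer parasites; stock transfer was 50 nL into about 50 µL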
# B2AR ag – activates human beta-2 adrenergic receptor causing internalization; Am2.2-beta2AR cells, FAP receptor internalization, flow cytometry; reference of the scale not given here; response, % (no concentration beside the values); 340,000 compounds, 0.43% hits; AID 504454;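 active = response above a set limit, near 3 SD of response in nonfluorescent compounds, cut at about 42% in these data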;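 note: stock transfer was 100 nL into about 11 µL; a reference agonist was the positive control; negative values mostly stem from fluorescent compounds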
# * = called active by the depositor; u = inconclusive; x = not tested or not shown.
SMILES,LANA-H2B inh,A1 inh,Beta cell apopt,Calb FLC,UCH37 inh,RanGTP-Impb inh,T cruzi inh,B2AR ag
CC(C)S(=O)(=O)c1csc(NC(=O)Nc2ccc(Cl)cc2)c1,-5.8,0.2,10,15,3.8,4.1,6,3
O=C(NCCn1ccc2ccccc21)C1CCCCC1,-2.9,0.1,10,-1,5.8,0.0,4,-5
CCOC(=O)c1sc(C)c(C(=O)NC2CCCCC2)c1N,0.0,0.7,-1,-13,-7.9,0.0,9,3
O=c1cc(CSc2nc3cc(Cl)ccc3o2)nc2sccn12,-9.9,-0.2,2,4,5.6,1.6,1,-5
COC(=O)C1(C)NC(c2ccc(Cl)cc2)C2C(=O)N(c3ccccc3)C(=O)C21 (stereo not given),3.3,-0.1,0,1,1.5,2.5,-19,4
CCOC(=O)Cc1csc(NC(=S)NC(=O)c2ccccc2C)n1,-1.4,0.6,0,60,0.1,0.5,0,-6
O=C(NN1CCOCC1)c1ccco1,5.2,-0.7,-1,x,0.5,x,x,0
COc1ccc(N)cc1-n1cnnn1,-1.2,0.4,-5,-2,0.2,1.3,-12,-3
Cc1ccccc1S(=O)(=O)Cc1ccc(C(=O)NC(C)c2ccc3c(c2)OCCO3)o1 (stereo not given),-2.2,0.3,1,2,4.5,u,-4,4
COc1ccc(/C=C2\SC(=O)N(CCCC(=O)Nc3cc(Cl)ccc3C(=O)O)C2=O)cc1,1.0,0.1,-3,x,13,x,x,2
Cc1cc(C)n(C(=O)CN2C(=O)c3ccccc3C2=O)n1,-1.0,1.1,-7,24,5.5,1.2,-8,5
CCCCCC(=O)Nc1ccc(S(=O)(=O)Nc2cc(OC)nc(OC)n2)cc1,6.2,0.5,-10,-6,5.0,-1.0,-8,-1
CCCCCCNC(=O)c1c(O)c2ccccc2[nH]c1=O,4.2,-0.8,3,-3,3.3,-2.6,-3,-1
O=c1[nH]c2ccc(Cl)cc2c(O)c1-c1ccccc1,2.1,0.0,-8,30,1.7,-0.9,-1,-3
Cn1c(=S)[nH]c2cccnc21,0.8,0.8,-1,-2,1.3,-0.3,-17,0
O=C(NNS(=O)(=O)c1ccccc1)c1ccncc1,4.0,-0.3,-4,-3,-0.1,-2.8,-10,-4
CCOC(=O)C(NC(=O)CC)(Nc1ccc(S(=O)(=O)Nc2onc(C)c2C)cc1)C(F)(F)F (stereo not given),1.8,0.0,-3,1,-0.5,-2.5,-10,-7
COc1cccc(-c2c(NC(=O)c3ccco3)n(-c3ccc(C)cc3)nc(C)c2=O)c1,5.2,0.7,1,-20,1.6,x,-8,4
Nn1c(SCc2cc([N+](=O)[O-])cc3c2OCOC3)nnc1-c1ccccn1,-3.1,0.8,-7,-4,6.4,-1.2,-1,-8
O=C(NCCCN1CCCC1=O)c1cccc(S(=O)(=O)Nc2ccccc2Cl)c1,x,0.0,-3,x,1.8,x,x,9
CCOc1cc(C(=O)Nc2ccc3c4c(cccc24)C(=O)N3CC)cc(OCC)c1OCC,-0.4,0.8,-5,u,2.2,-24,7,39
CNc1nc2[nH]c(=O)c3c(c2s1)OC(N)=C(C#N)C3c1cccc(F)c1 (stereo not given),0.2,-0.4,-4,2,x,-1.5,-10,4
Cc1ccc(NC(=O)CN(C)Cc2nc3ccccc3c(=O)[nH]2)c(Br)c1,-0.5,-0.4,-1,-11,3.9,-3.8,20,-17
CCCCN(C)CCCNC(=O)c1cn(CC)c2ccc(S(=O)(=O)N3CCOCC3)cc2c1=O,-3.1,1.0,-5,-2,2.6,3.0,8,-7
NC(=O)Cc1ccc(C(=O)c2ccc(Cl)cc2)s1,0.0,-0.3,-12,-13,1.3,-1.3,-13,5
CCOC(=O)Cc1csc(/N=C/c2c(O)n(-c3ccc(C)cc3C)c(=O)c3ccccc23)n1,1.6,-1.0,2,16,1.1,3.3,0,17
CC(Sc1nnc(NC(=O)c2cc3ccccc3oc2=O)s1)c1ccccc1 (stereo not given),-2.8,0.3,-2,13,8.5,-1.1,-2,-3
Cc1onc(-c2ccccc2)c1C(=O)NC(=S)NNC(=O)c1ccco1,4.2,-0.6,4,-6,7.2,-2.3,-44,-10
CCOC(=O)C1CCN(c2nc(-c3ccc(C)cc3)nc3ccccc23)CC1,-1.9,-0.1,0,-10,-0.2,1.5,22,-5
CSc1cccc(CN2CCC(CCC(=O)NC3CC3)CC2)c1,-1.9,-0.2,-3,-6,2.7,2.0,15,-1

# Part of the list above, with two lines to a compound:
# Fields: LANA-H2B inh, A1 inh, Beta cell apopt, Calb FLC, UCH37 inh, RanGTP-Impb inh, T cruzi inh, B2AR ag
> Nn1c(SCc2cc([N+](=O)[O-])cc3c2OCOC3)nnc1-c1ccccn1
 : -3.1, 0.8, -7, -4, 6.4, -1.2, -1, -8
> O=C(NCCCN1CCCC1=O)c1cccc(S(=O)(=O)Nc2ccccc2Cl)c1
 : x, 0.0, -3, x, 1.8, x, x, 9
> CCOc1cc(C(=O)Nc2ccc3c4c(cccc24)C(=O)N3CC)cc(OCC)c1OCC
 : -0.4, 0.8, -5, u, 2.2, -24, 7, 39
> CNc1nc2[nH]c(=O)c3c(c2s1)OC(N)=C(C#N)C3c1cccc(F)c1 (stereo not given)
 : 0.2, -0.4, -4, 2, x, -1.5, -10, 4

# Going on with the list:
SMILES,LANA-H2B inh,A1 inh,Beta cell apopt,Calb FLC,UCH37 inh,RanGTP-Impb inh,T cruzi inh,B2AR ag
CCc1ccccc1OCCCN1CCCC1,-2.6,0.1,x,7,3.8,-2.2,40,1
COc1ccc(CNC(=O)CCNS(=O)(=O)c2ccc(Cl)cc2)cc1,0.3,-0.7,5,-4,-1.0,-3.1,-12,0
O=C(NC(=S)Nc1ccc(Cl)c(C(=O)O)c1)c1cncc(Br)c1,-1.0,0.3,-8,-10,2.2,3.9,-6,-1
C/C=C/c1ccc(OCCCNC)c(OC)c1,4.9,0.3,x,-26,3.6,-0.4,40,-3
COc1cccc(/C=N/NC(=O)c2cc(-c3cccn3C)n[nH]2)c1O,0.2,-1.7,26,103*,x,0.2,3,18
COc1cc(/C=N/NC(=O)Nc2ccccc2)ccc1OCCOc1ccccc1C,-16,-0.8,14,9,x,3.1,5,0
O=C(O)CC1C(=O)NCCN1Cc1ccc(F)c(F)c1 (stereo not given),0.7,0.5,-8,-2,4.1,0.8,-15,3
CNC(=O)c1ncoc1-c1ccc(Cl)cc1,-0.3,-0.4,-6,-1,-3.2,-0.1,6,-6
Cc1cc(C)n(CC(=O)N2N=C(C(F)F)CC2(O)C(F)F)n1 (stereo not given),-2.8,-0.7,-13,-10,3.4,-1.8,-17,-1
N=C1C(=O)OCC1c1ccccc1NC(=O)Nc1ccccc1 (stereo not given),0.2,0.1,-2,-13,0.6,1.1,3,-1
O=C(Nc1ccc(S(=O)(=O)Nc2ccccc2)cc1)C1CC1,0.5,2.9,1,3,4.5,-0.1,1,0
CN1CCc2c(sc3c2C(=O)NC(c2ccc4c(c2)OCO4)N3)C1 (stereo not given),-1.0,-0.4,1,-15,6.8,41*,13,-8
CCN(Cc1ccccc1)S(=O)(=O)c1ccc(C(=O)Nc2nnc(C)o2)cc1,-6.1,0.4,5,-6,-2.5,1.3,-28,-2
Cc1cc(C)nc(SCC(=O)Nc2ncc(Cc3ccc(Cl)c(Cl)c3)s2)n1,1.3,-0.1,23,0,4.5,-2.6,14,-23
CC(C)OCCCNC(=O)c1ccc(C2SCC(=O)N2Cc2ccco2)cc1 (stereo not given),4.1,-0.1,-2,16,3.1,-3.0,10,8
Cc1nc(NC(=O)COC(=O)c2ccc(S(=O)(=O)N3CCc4ccccc4C3)cc2)c(Cl)cc1Cl,-0.4,0.3,-1,-15,-21,-2.5,-5,-5
Cc1ccc(C)n1-c1ccc(-n2cnnn2)cc1,-2.0,-0.6,x,2,1.2,7.8,-7,16
CCc1c(C)sc2nc(C(C)C)nc(SCC(=O)N3CCc4ccccc4C3)c12,4.3,0.0,105*,-4,4.6,3.0,35,x
CCOC(=O)CC1(NC(=O)c2cc(COc3cccc(OC)c3)on2)CCCCC1,-0.2,-0.9,16,4,4.8,-0.1,2,5
COc1ccc(N2C(=O)/C(=C/c3cccnc3)NC2=S)cc1,2.7,0.1,6,-4,x,-2.3,7,15
CC(C)Cc1nnc(NC(=O)c2ccncc2)s1,-0.6,-0.3,2,-6,3.2,0.9,-9,1
O=C(CSc1nc2ccc(Cl)cc2[nH]1)NC1CCCc2ccccc21 (stereo not given),-0.8,1.2,0,-9,3.2,1.2,13,-9
O=C(Cn1cc([N+](=O)[O-])cn1)Nc1cccnc1,1.5,0.3,-7,13,1.9,0.9,-3,6
NC(=O)CSc1nnc(-c2cnccn2)n1-c1ccccc1,4.2,-0.1,-6,5,3.8,1.6,-11,1
Cc1ccccc1-n1nc2c(c1NC(=O)CCCl)CSC2,-2.7,1.6,0,-2,1.7,1.2,-10,-1
CCC(NC(=O)c1cc(COc2c(F)cccc2F)on1)c1ccncc1 (stereo not given),6.9,0.6,x,2,5.0,-2.5,-3,5
O=C(COc1ccccc1Br)NC1CC1,2.6,-1.2,2,-2,2.8,2.3,-7,-5
CC(C)C(=O)Nc1nnc(SCC(=O)N2c3ccccc3CC2C)s1 (stereo not given),3.0,0.1,-2,-9,0.8,0.8,11,-6
C#CCOCCOCCOCCNc1nc(N2CCN(C(=O)[C@H](CCC(=O)O)n3cc(CN)nn3)CC2)nc(N2CCN(C(=O)[C@H](CCC(=O)O)n3cc(CN)nn3)CC2)n1,-2.9,0.5,-5,x,3.9,x,x,-3
CSc1ccc(C=NNc2ccc(S(=O)(=O)Nc3ccccc3C(=O)O)cc2[N+](=O)[O-])cc1,1.6,1.9,10,x,22*,x,x,-3
Cc1cc(N2CCOCC2)nc2ccc(NC(=O)CCC(=O)N3CCCCC3)cc12,3.0,-1.0,1,7,-273,-4.3,-14,-3
CCOc1cc2[nH]c(=S)n(C3CC3)c(=O)c2cc1OCC,-5.5,0.2,3,-6,2.5,2.3,1,5
COc1cccc(CC2(CO)CCCN(Cc3cn(C)c4ccccc34)C2)c1 (stereo not given),-4.2,-0.5,-13,-33,1.5,-2.5,65*,3
CCN(c1ccccc1)S(=O)(=O)c1ccc(NC(=O)c2ccco2)cc1,0.7,0.5,3,2,4.2,-1.1,15,-5
Cc1nn(-c2cc(N3CCCC3)ccc2[N+](=O)[O-])c(=O)c2ccccc12,0.8,0.3,6,-2,8.3,-5.2,3,-6
Brc1ccc(OCc2ccccc2)c(CNCC2CCCO2)c1 (stereo not given),1.9,0.5,x,-57,1.1,7.4,3,8

# Rewritten tab-delimited: part of the list above
SMILES	LANA-H2B inh	A1 inh	Beta cell apopt	Calb FLC	UCH37 inh	RanGTP-Impb inh	T cruzi inh	B2AR ag
COc1cccc(CC2(CO)CCCN(Cc3cn(C)c4ccccc34)C2)c1 (stereo not given)	-4.2	-0.5	-13	-33	1.5	-2.5	65*	3
Cc1cc(N2CCOCC2)nc2ccc(NC(=O)CCC(=O)N3CCCCC3)cc12	3.0	-1.0	1	7	-273	-4.3	-14	-3
CCN(c1ccccc1)S(=O)(=O)c1ccc(NC(=O)c2ccco2)cc1	0.7	0.5	3	2	4.2	-1.1	15	-5
